Screening data: PubChem BioAssay, several laboratories
Mtb H37Rv: M. tuberculosis H37Rv growth inhibitors, H37Rv strain (AID 1626) | M. tuberculosis H37Rv growth inhibition; higher % means a stronger effect | one-dose inhibition, % at 10 µM; IC50 in µM for titrated hits | hit rate 0.95% among 220,000;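 active = confirmed in a dose series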;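 note: bacteria incubated seven days before Alamar blue readout; 0% = bacteria only wells and 100% = bacteria with antibiotic wells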
Mtb betalactam: beta-lactam sensitization of Mtb H37Rv; M. tuberculosis H37Rv growth with meropenem, percent inhibition; hits of this screen are not shown here; inhibition, % at 25 µM; hit rate 0.27% among 330,000; AID 434955;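 active = about 74% or more and at least 40 points above the plate without the antibiotic, then above 30% in a dose series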;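 note: growth measured after seven days incubation then overnight dye step; 0% = bacteria only wells and 100% = bacteria with antibiotic; twin plates without the antibiotic show which effects depend on it; some results filed as inactive read as strong as hits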
RecA intein inh: Mtb RecA intein splicing inhibition | inhibition, %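 (about 9 µM by stock and volumes)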 | P9WHJ3 | hit rate 0.75% among 290,000 | cell-free RecA intein splicing, fluorescence; in the data active = inhibition above about 30%;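 note: 0% = vehicle wells and 100% = reference inhibitor control wells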
Target sequence (P9WHJ3 whole entry, looked up): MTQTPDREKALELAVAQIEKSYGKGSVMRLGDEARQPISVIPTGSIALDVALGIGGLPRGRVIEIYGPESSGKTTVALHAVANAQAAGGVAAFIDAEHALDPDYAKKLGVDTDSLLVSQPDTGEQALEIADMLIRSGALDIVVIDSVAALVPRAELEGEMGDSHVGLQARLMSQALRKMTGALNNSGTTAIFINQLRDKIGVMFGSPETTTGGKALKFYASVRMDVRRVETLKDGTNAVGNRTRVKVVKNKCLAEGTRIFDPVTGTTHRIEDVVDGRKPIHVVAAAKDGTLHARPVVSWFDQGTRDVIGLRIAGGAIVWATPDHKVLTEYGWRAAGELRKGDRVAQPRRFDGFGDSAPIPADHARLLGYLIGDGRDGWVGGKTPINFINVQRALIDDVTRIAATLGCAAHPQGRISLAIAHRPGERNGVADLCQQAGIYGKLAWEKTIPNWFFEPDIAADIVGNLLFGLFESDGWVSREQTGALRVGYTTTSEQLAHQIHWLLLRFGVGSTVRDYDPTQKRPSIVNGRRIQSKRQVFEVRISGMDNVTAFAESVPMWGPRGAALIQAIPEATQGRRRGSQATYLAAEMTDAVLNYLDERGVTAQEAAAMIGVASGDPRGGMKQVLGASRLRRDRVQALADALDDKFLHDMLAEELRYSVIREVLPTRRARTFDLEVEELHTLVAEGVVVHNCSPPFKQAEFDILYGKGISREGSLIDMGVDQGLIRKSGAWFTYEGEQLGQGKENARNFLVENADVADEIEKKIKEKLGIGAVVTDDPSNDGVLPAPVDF
YopH PTP inh: blocks Yersinia enterocolitica YopH tyrosine phosphatase. fluorescence Ex485/Em525. inhibition, %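 (about 10 µM by stock and volumes)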. hit rate 0.16% among 140,000;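 active = inhibition of 50% or more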;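 note: controls were vehicle for no effect and minimum signal wells for full effect; inactives centre near -20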
Arbovirus anti: arbovirus infection inhibition | arbovirus infection cell-based antiviral screen | inhibition, % at 10 µM | hit rate 0.37% among 200,000;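 active = inhibition from about 30%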;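 note: bluetongue infection of BSR cells; cell survival read as ATP light after 72 h; 0% = infected wells without compound and 100% = uninfected wells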
Arbovirus anti repeat: further read-out of Arbovirus anti, marked with its call; inhibition, %; measured here: 10K subset replicate screen; many hits read low in the repeat;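 first of two repeat runs on a subset; 0% = infected and 100% = uninfected wells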
Active calls of the source: *; x = no result given.

SMILES	Mtb H37Rv	Mtb betalactam	RecA intein inh	YopH PTP inh	Arbovirus anti	others
N#CC1=C2SCC(O)(c3ccccc3)N2C(=O)CC1c1cccs1 (stereo not given)	3%	35	x	3	-20
COc1cc(-c2cc(C(=O)Nc3ccc(O)cc3)c3ccccc3n2)cc(OC)c1OC	10%	16	9.9	x	x
CCn1c(=O)n(CC(=O)N2CC(C)CC(C)C2)c(=O)c2ccccc21 (stereo not given)	-5%	-10	-0.2	-105	7
COC(=O)Cn1c(=NC(=O)CSC(C)=O)sc2ccccc21	-2%	-4	2.1	-36	3	Arbovirus anti repeat=3
O=C(Nc1c2c(nn1-c1ccc([N+](=O)[O-])cc1)CS(=O)(=O)C2)C1CC1	x	7	-1.6	x	x
COc1ccc(-c2[nH]c(-c3ccc(C(=O)O)cc3)nc2-c2ccccc2)cc1	-7%	0	-4.6	-38	-8
Cc1ccc(CNc2ccc3c(c2)nc(C)n3C)cc1	x	-4	-6.2	x	x
CCSc1nc2ccc(C)cc2cc1C#N	1%	-2	-0.5	x	3
COc1cccc(CN(C)C(=O)c2sccc2-c2ccccc2)c1OC	x	1	6.0	x	x
CN(C)C(=O)c1ccccc1-c1ccccc1	1%	35	-1.7	-1	-1
CC(C)NC(=O)C1(c2ccccc2)CC1(Cl)Cl (stereo not given)	-7%	4	0.6	-20	-1
COc1ccccc1/C=C/C1NC(=O)NC(C)=C1C(=O)OC(C)C (stereo not given)	-2%	1	-1.9	x	-4
COc1ccc(NC(=S)NCCN2CCOCC2)cc1	-3%	-5	0.3	x	-2
O=C(Nc1cccnc1)C1(c2ccccc2)CCCC1	0%	-4	1.6	1	6
Cc1ccccc1CNC(=O)c1ccc2ccccc2n1	x	4	6.3	x	x

Entries from the list above with an aryl methoxy group, in the order listed:
SMILES	Mtb H37Rv	Mtb betalactam	RecA intein inh	YopH PTP inh	Arbovirus anti	others
COc1cc(-c2cc(C(=O)Nc3ccc(O)cc3)c3ccccc3n2)cc(OC)c1OC	10%	16	9.9	x	x
COc1ccc(-c2[nH]c(-c3ccc(C(=O)O)cc3)nc2-c2ccccc2)cc1	-7%	0	-4.6	-38	-8
COc1cccc(CN(C)C(=O)c2sccc2-c2ccccc2)c1OC	x	1	6.0	x	x
COc1ccccc1/C=C/C1NC(=O)NC(C)=C1C(=O)OC(C)C (stereo not given)	-2%	1	-1.9	x	-4
COc1ccc(NC(=S)NCCN2CCOCC2)cc1	-3%	-5	0.3	x	-2

Remaining list, next part.
SMILES	Mtb H37Rv	Mtb betalactam	RecA intein inh	YopH PTP inh	Arbovirus anti	others
CCOC(=O)C1=C(C)Nc2ccccc2N=C1NC(=O)Cc1ccc(OC)cc1	-2%	-7	-1.7	-7	-4
CC(C)n1nc(C(=O)N2CCN(S(=O)(=O)c3cccs3)CC2)c2ccccc2c1=O	x	0	1.2	x	x
CCOc1ccc(NC(=O)c2c(C)nn(Cc3ccccc3)c2Cl)cc1	-3%	-3	-0.4	-16	-2
COc1cccc(CN(CC2CCCO2)S(=O)(=O)c2ccc(S(=O)(=O)N(C)C)cc2)c1 (stereo not given)	1%	-4	6.5	-15	-6
Cc1cccc(NC(=O)CN2C(=O)N/C(=C/c3cc(C)n(-c4ccncc4)c3C)C2=O)c1	9%	-7	-0.6	-16	-8
COc1cccc(CNC(=O)C2CCCN(c3nn4c(=O)cc(C)nc4s3)C2)c1 (stereo not given)	-7%	-14	x	-17	8
C=CCN1CCN(C(c2ccccc2)c2nnnn2CCC(C)C)CC1 (stereo not given)	0%	-8	-0.3	-16	0
COC(=O)[C@@H]1C[C@H]2CC[C@H](O)C[C@H]2N1Cc1ccc(N2CCN(C)CC2)cc1	-1%	-7	-3.3	x	x
CCOc1cc(C2CC(=O)NC3=C2C(=O)C(C(=O)OC)C(C)C3)cc(Br)c1O (stereo not given)	-4%	-6	-2.6	-28	17
CCOc1ccccc1Nc1nc(N)nc(CN2CCCCC2C)n1 (stereo not given)	3%	4	-3.1	x	3
CCCCCCCCCCCCN1[C@@H](CC(=O)OC)c2cc(C(F)(F)F)ccc2S1(=O)=O	-5%	-10	2.7	x	x
Cc1cc(/C=N/NC(=O)c2c(Br)cnn2C)c(C)n1-c1cccc(Br)c1	13%	11	-0.3	-42	0
O=c1[nH]c(=O)c2nc3ccccc3nc2[nH]1	x	0	-27	x	x
CC(C)CN(CC(C)C)C(=O)CCCC(=O)N(CC(C)C)CC(C)C	5%	3	-1.1	-5	0
Fc1ccc(NC(=S)NC2CCCCC2)c(F)c1F	-10%	5	-0.3	-25	-3

Sorted by molecular weight (rising): part of the list above
SMILES	Mtb H37Rv	Mtb betalactam	RecA intein inh	YopH PTP inh	Arbovirus anti	others
CC(C)CN(CC(C)C)C(=O)CCCC(=O)N(CC(C)C)CC(C)C	5%	3	-1.1	-5	0
CCOC(=O)C1=C(C)Nc2ccccc2N=C1NC(=O)Cc1ccc(OC)cc1	-2%	-7	-1.7	-7	-4
Cc1cccc(NC(=O)CN2C(=O)N/C(=C/c3cc(C)n(-c4ccncc4)c3C)C2=O)c1	9%	-7	-0.6	-16	-8

In the list so far, these contain an NH in an aromatic ring.
SMILES	Mtb H37Rv	Mtb betalactam	RecA intein inh	YopH PTP inh	Arbovirus anti	others
COc1ccc(-c2[nH]c(-c3ccc(C(=O)O)cc3)nc2-c2ccccc2)cc1	-7%	0	-4.6	-38	-8
O=c1[nH]c(=O)c2nc3ccccc3nc2[nH]1	x	0	-27	x	x

Next section
SMILES	Mtb H37Rv	Mtb betalactam	RecA intein inh	YopH PTP inh	Arbovirus anti	others
CSc1ccc(C(=O)C2CCCN(Cc3cccc4nccnc34)C2)cc1 (stereo not given)	7%	-13	5.5	x	x
O=c1c(Cl)c(NCc2ccccc2Cl)cnn1C12CC3CC(CC(C3)C1)C2	8%	8	2.7	-29	11
COCCn1nnnc1C(c1cccs1)N1CCCC(C)C1 (stereo not given)	-8%	-11	-0.7	x	8
CCN(CC(=O)NCc1ccc(Cl)cc1)C(=O)c1ccc2cc(OC)ccc2c1	x	-7	1.9	x	x
CCN(CC)S(=O)(=O)c1cccc(NC(=O)COC(=O)CCC(=O)c2ccc(F)cc2)c1	-10%	-9	3.0	-17	7
O=C(NCC(c1cccnc1)N1CCOCC1)NC1CCCCC1 (stereo not given)	-4%	-2	-0.4	x	-3
CC(=O)/C=C(\C)NCCNc1c(F)c(F)c(CO)c(F)c1F	6%	0	-1.2	-27	-3
CCn1c(SCc2nc3ccccc3[nH]2)nnc1-c1ccc(OC)cc1	5%	-8	-0.5	7	7
CCC/C(=N\NC(=O)Cc1csc(N2CCOCC2)n1)c1ccccc1	3%	-5	1.6	x	8
O=S(=O)(NC1CCN(Cc2ccccc2)CC1)c1ccc2ccccc2c1	9%	-1	3.7	x	-1
COc1ccc(NC(=O)C(=O)N/N=C/c2cccnc2)c(OC)c1	-9%	-1	-5.5	-29	2
COc1ccc(NC(=O)CCCn2nc(C)c3c(C)n(-c4ccccc4)nc3c2=O)cc1OC	x	3	-2.8	x	x
Cc1ccc(S(=O)(=O)/N=C2\C=C(Nc3cccc(C(=O)O)c3)C(=O)c3ccccc32)cc1	x	5	95*	x	x
COCCNC(=O)Cn1cc(C(=O)c2cccs2)c2ccccc21	-5%	-8	-1.4	-13	3
O=C(NCCc1ccccc1)C1CCCN(c2nc3ccccc3s2)C1 (stereo not given)	x	-2	0.8	x	x
Cc1ccc(S(=O)(=O)N[C@@H](CC(C)C)C(=O)NCc2ccco2)cc1	-2%	-3	0.8	-8	2
CC(=O)c1cccc(OCC(O)CNCCc2ccc(Cl)cc2)c1 (stereo not given)	x	2	-1.9	x	x
CCc1cc2c(=O)c(-c3nc4ccccc4n3C)c(C)oc2c(CN2CCN(C)CC2)c1O	x	-2	0.0	-30	6
NC(=O)C1CCN(C2=C(NS(=O)(=O)c3ccc(Cl)cc3)C(=O)c3ccccc3C2=O)CC1	-1%	24	6.4	x	x
CC(=O)N1c2ccccc2C2(O)N=C(C)SC12 (stereo not given)	2%	4	0.3	41	-3
COc1ccc(CNC(=O)CSc2nnc(-c3cccnc3)n2N)cc1	-7%	-8	1.2	x	1
CSc1nc(N)nc(SCC(=O)CC(=O)OC(C)C)c1C#N	-4%	-3	2.0	-34	-6
CCN1CN(CCc2ccccc2)CNC1=S	2%	0	-2.7	-10	3
CC(C)N(C(=O)CN1C(=O)NC2(CCCCCC2)C1=O)C(C)C	-12%	-7	-2.1	-4	9
N#CCC(=O)NNc1c([N+](=O)[O-])cc(C(F)(F)F)cc1[N+](=O)[O-]	1%	7	-0.2	x	x
CN(CC(=O)Nc1cccc(F)c1)C(=O)CC1CC2CCC1C2 (stereo not given)	x	-18	3.4	x	x
CSC(=NC1CCCCC1)NS(=O)(=O)c1ccccc1	-3%	2	-0.8	-40	x
NC(=O)c1cc(S(=O)(=O)N2CCN(c3ccc([N+](=O)[O-])cc3)CC2)cs1	x	-5	1.5	x	x
O=C(CN(Cc1ccco1)C(=O)c1ccc(N2CCCC2=O)cc1)Nc1ccccc1C(F)(F)F	x	-4	0.1	x	x
COc1ccc(OC)c(NC(=O)c2cc3c(Cl)nc4ccccc4c3s2)c1	7%	11	-2.9	-1	-1
CCn1c([N+](=O)[O-])nc2c1c(=O)[nH]c(=O)n2C	0.82µM*	x	17	x	-22
CCC(Sc1ccccn1)C(=O)Nc1cccc([N+](=O)[O-])c1 (stereo not given)	7%	3	-0.5	x	8
COc1ccc(N2CSC3=C(C#N)C(c4cccs4)CC(=O)N3C2)cc1 (stereo not given)	-10%	95	3.7	-23	-15
CCN(CC)S(=O)(=O)c1ccc(Cl)c(C(=O)NCC2CCCO2)c1 (stereo not given)	-5%	9	3.9	-54	4
CC(=O)Nc1ccc(OC(=O)N(C)C)cc1	-21%	-6	-1.7	-22	5
CCCCCOc1ccc(CSc2ncn[nH]2)cc1	7%	2	4.7	-2	-11
CC(C)C(C(=O)Nc1nccs1)c1ccccc1 (stereo not given)	-5%	-3	-1.0	-23	6
Brc1cnc(N2CCCCC2)nc1N1CCOCC1	0%	12	3.7	-7	16
C=CCC1(C(=O)N(C)Cc2ccccc2)CCN(C(=O)OC(C)(C)C)CC1	13%	-6	1.6	x	x
O=C(NC(=S)NCc1ccccc1)c1cccs1	x	-10	6.7	x	x
CC(=O)c1ccc(NC(=S)Nc2ccn(Cc3ccc(Br)cc3)n2)cc1	43%	-1	2.7	x	-25
COc1ccc(-c2noc(CN(C)C(=O)c3ccoc3C)n2)cc1OC	x	-2	8.0	x	x
CCCCc1nnc(NC(=O)C(C)Sc2nc(N)cc(=O)[nH]2)s1 (stereo not given)	-4%	4	-2.0	-22	11
CCn1c(=N)n(CC(=O)c2cccc(OC)c2)c2ccccc21	4%	19	5.8	x	5
CC1CCc2cc(F)ccc2N1C(=O)CSc1nnc2c3cc(F)ccc3n(C)c2n1 (stereo not given)	-1%	-1	-2.7	-25	3
CC(=O)c1ccc(S(=O)(=O)N2CCCc3ccccc32)cc1	x	3	2.2	x	x
CCn1c(=O)cc(OCC(=O)N2CCN(c3cccc(C(F)(F)F)c3)CC2)c2ccccc21	-2%	13	0.9	-46	3
Nc1nnc(-c2ccc(Cl)c(Cl)c2)s1	1%	8	-2.2	x	12
COCCN(C(=O)CSc1nnc(-c2cccc(F)c2)n1N)c1c(N)n(CC(C)C)c(=O)[nH]c1=O	x	-10	0.6	x	x
O=C(CCCc1nc(-c2ccccc2Cl)no1)NCc1cccnc1	-5%	-7	x	-51	5
Cc1cc(C)c(S(=O)(=O)Nc2ccc(C(N)=O)cc2)c(C)c1	-5%	-8	0.2	x	1
O=C(Nc1ccc(F)cc1)C1COc2ccccc2O1 (stereo not given)	x	-2	1.9	x	x
CN(C)c1nc(SCC(=O)Nc2ccc(Cl)c(Cl)c2)nc(N2CCOCC2)n1	x	-6	-0.5	x	x
Cc1ccc2[nH]c(O)c(N=NC(=O)C(C)n3cnc4ccccc4c3=O)c2c1 (stereo not given)	19%	16	1.9	-45	-1
N#Cc1c2c(c(Nc3ccccc3)n3c1nc1ccccc13)CCC2	-7%	30	-0.3	-27	-1
COc1ccc(CSc2nnc(C)n2N)cc1Br	-10%	-6	-1.2	-46	-2
O=C(NCCCCCc1nc2ccccc2[nH]1)c1ccccc1Cl	7%	3	0.6	x	x
CC12CCC(C(N)=O)(C1Br)C2(C)C (stereo not given)	1%	-9	-0.5	-19	5
CCC(=O)Nc1ccc(N2CCN(C(=O)c3cccs3)CC2)cc1	11%	-2	-2.1	x	2
O=C(Nc1ccc(-n2cc(Br)cn2)cc1)c1ccncc1	x	46	-2.8	x	x
(cont.)
SMILES	Mtb H37Rv	Mtb betalactam	RecA intein inh	YopH PTP inh	Arbovirus anti	others
Cc1ccc(N2CC(C(=O)N3CCC(C(=O)NCCCOC(C)C)CC3)CC2=O)cc1 (stereo not given)	x	1	1.6	x	x
COc1ccc(CC(=O)N2CCN(c3ccccn3)CC2)cc1	-4%	-5	2.3	-12	-5
Cc1cccc(OCC(=O)N2CCN(Cc3cccnc3)CC2)c1	-11%	-5	-3.8	x	9
CC1CN(S(=O)(=O)c2cccc(C(=O)Nc3ccc4c(c3)CCC4)c2)CC(C)O1 (stereo not given)	3%	-2	6.6	-13	3

An excerpt; count on the stated rates, not on these rows.
